Screening results from PubChem BioAssay.
Beta cell apopt: inhibitors of cytokine-induced beta cell apoptosis, primary screen, luminescence | INS-1E cytokine-induced death, ATP luminescence, 48 h; percent of positive-control rescue, neutral wells zero | protection from apoptosis, % (test concentration not listed) | 300,000 compounds, 0.8% hits | AID 435005, 2010;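 active = all replicates at 75% or more, or half of them and the mean; inconclusive = half reach 75% but not the mean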;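 also: 0% = cytokine-treated negative control wells and 100% = positive control rescue; higher means more ATP so stronger rescue from cytokine killing; wells of about 40 µL received 100 nL stock; the first replicate is given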
A1 inh: caspase 3/7 activation in MEF A1-2A-BIM cells, primary screen, A1 inhibitor project, cell-based, luminescence, HTS; Caspase-Glo 3/7 luminescence, 3 h; percent of clofoctol response, vehicle zero; AID 2462, 2010; 330,000 compounds, 0.066% hits; caspase activation, % (concentration not given with the values);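 active = over half of replicate activation scores above 10%, or exactly half above 10 with the replicate mean above 10; inconclusive = replicate mean below 10 yet half the replicates above 10; inactive = over half of replicates below 10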;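 also: wells of about 30 µL received 50 nL stock; many hits fall short of the cut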
Calb FLC: C. albicans growth inhibition with fluconazole, primary screen, CaCi-2 strain, Alamar Blue fluorescence; C. albicans CaCi-2 (fluconazole-resistant clinical isolate) + fluconazole, 48 h; growth inhibition, % (no concentration beside the values); 300,000 compounds, 0.57% hits; AID 1979, 2009;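 active = most replicates above 75%; inconclusive = exactly half above 75%; inactive = most below 75%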;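 also: all wells also contain fluconazole at 8 µg/ml as a sub-toxic cotreatment; 0% = median of DMSO wells and 100% = median of geldanamycin control wells; wells of about 8 µL received 7.5 nL stock; the first replicate is given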
T cruzi inh: inhibitors of intracellular T. cruzi growth, primary screen, luminescence, NIH3T3 host cells. T. cruzi beta-gal in NIH3T3, 90 h. inhibition, % (test concentration not listed). 300,000 compounds, 1.4% hits. AID 1885, 2009;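 active = mean inhibition across valid replicates above about 55%, limit read from the data; inconclusive = mean below that limit but half or more replicates reach it; inactive = mean below it, under half of replicates reach it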;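 also: signal also drops with host cell toxicity which is not excluded here; 0% = plate median of DMSO wells and 100% = zero luminescence signal; higher percent means less beta-gal luminescence so fewer parasites; stock transfer was 50 nL into about 50 µL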
ALR H2O2 inh: inhibitors of human ALR sulfhydryl oxidase, primary screen, biochemical, H2O2 detection, HRP-luminol luminescence, single point | inhibition, % (test concentration not listed) | FAD-linked sulfhydryl oxidase ALR (Homo sapiens), P55789 | 290,000 compounds, 3.8% hits | purified ALR, DTT oxidation | AID 485317, 2010;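 active = mean and each replicate at 75% or more; inconclusive = only one of the two met; inactive = neither met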;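 also: stock transfer was 7.5 nL into about 7.5 µL; 0% = neutral wells and 100% = wells with inactivated enzyme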
Target sequence (P55789 whole entry, looked up): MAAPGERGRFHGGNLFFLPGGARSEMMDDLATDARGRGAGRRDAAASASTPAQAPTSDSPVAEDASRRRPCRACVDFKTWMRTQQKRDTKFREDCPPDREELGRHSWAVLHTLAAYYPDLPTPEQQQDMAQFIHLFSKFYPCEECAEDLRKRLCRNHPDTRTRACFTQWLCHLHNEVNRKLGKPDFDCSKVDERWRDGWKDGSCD
Ecoli rRNA inh: reduced GFP signal of wild-type E. coli, primary screen, bacterial rRNA inhibitor project, GFP/RFP fluorescence, OD600, single point; E. coli WT GFP vs humanized-ribosome RFP mutants, 24 h; active compounds read low; DMSO median 0, no signal -100; GFP signal change (wild-type ribosome), % (no concentration beside the values); 350,000 compounds, 1.6% hits; AID 720706, 2013;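 active = significant combined selectivity score with lowered wild-type GFP, culture density cut under 30%, mutant RFP and density less affected; inactive = any of these conditions unmet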; also: one replicate is shown; some compounds called inactive have numbers as strong as hits
B2AR ag: beta2AR agonists driving receptor internalization, primary screen, cell-based, FAP fluorogen, flow cytometry; Beta-2 adrenergic receptor (Homo sapiens), P07550; Am2.2-beta2AR cells; reference of the scale not given here; response, % (concentration not given with the values); 340,000 compounds, 0.43% hits; AID 504454, 2011;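 active = response above a set limit, near 3 SD of response in nonfluorescent compounds, cut at about 42% in these data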;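 also: stock transfer was 100 nL into about 11 µL; a reference agonist was the positive control; negative values mostly stem from fluorescent compounds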
Target sequence (P07550 whole entry, looked up): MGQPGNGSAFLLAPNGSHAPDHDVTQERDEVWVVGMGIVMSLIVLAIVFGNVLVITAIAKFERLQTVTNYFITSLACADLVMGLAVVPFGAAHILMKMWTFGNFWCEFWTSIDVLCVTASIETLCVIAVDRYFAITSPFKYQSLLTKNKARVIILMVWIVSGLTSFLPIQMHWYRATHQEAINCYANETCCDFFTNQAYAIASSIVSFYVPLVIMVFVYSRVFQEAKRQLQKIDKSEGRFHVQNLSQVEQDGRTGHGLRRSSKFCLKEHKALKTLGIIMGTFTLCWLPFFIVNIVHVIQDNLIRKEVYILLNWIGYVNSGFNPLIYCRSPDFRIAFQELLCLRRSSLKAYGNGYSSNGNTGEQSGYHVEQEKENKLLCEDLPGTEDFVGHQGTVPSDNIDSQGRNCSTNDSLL
LANA-H2A inh: blockers of LANA interaction with H2A/H2B – biochemical, FP readout, HTS, primary screen | Protein LANA1 (Human herpesvirus 8 type P (isolate GK18)), Q9QR71 | cell-free LANA-H2A/H2B peptide, fluorescence polarization | inhibition, % (test concentration not listed) | 320,000 compounds, 0.6% hits | AID 2629, 2010; in the data active = inhibition mostly above about 10%, no sharp cut-off; inactive = mostly below about 6.7%;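 also: stock transfer was 7.5 nL into about 10 µL; 0% = median of vehicle wells and 100% = median of positive control wells; one replicate is shown; the record names a cut of 25% in any replicate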
Ecoli rRNA inh OD600: also measured in Ecoli rRNA inh; calls as there; OD600 change, %; measured here: OD600 growth;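 optical density of the mix in the first replicate; 0 = DMSO median and -100 = no signal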
Ecoli rRNA inh RFP: also measured in Ecoli rRNA inh; calls as there; RFP signal change, %; measured here: RFP humanized mutant strains;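 first replicate; 0 = DMSO median and -100 = no signal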
Numbers without * were called inactive; ? = inconclusive; . = not tested or not shown.

SMILES	Beta cell apopt	A1 inh	Calb FLC	T cruzi inh	ALR H2O2 inh	Ecoli rRNA inh	Ecoli rRNA inh OD600	Ecoli rRNA inh RFP	B2AR ag	LANA-H2A inh
CCOc1ccccc1C(=O)Nc1ccccc1-c1ccccc1	-2	1.4	15	7	-13	.	.	.	-2	-3.9
O=C(NNC(=S)Nc1ccccc1)c1cc(Br)ccc1Cl	23	0.4	13	6	58	-51	-49	-13	6	3.0
Cc1ccc(C2(C)NC(=O)N(Cc3c(C)noc3C)C2=O)cc1 (configuration not stated)	-5	0.5	3	-2	-1	.	.	.	-4	-5.2
COc1cc(/C=N/NC(N)=O)cc(Br)c1OCc1ccccc1C	.	-0.2	-9	-21	0	.	.	.	-2	1.0
O=C1N=C(N2CCOCC2)SC1=C1CCCCC1	.	-0.7	-2	-9	-6	.	.	.	5	-0.7
COc1ccc2oc(-c3ccccc3)c(C(=O)O)c2c1	-3	-0.9	1	3	3	-11	-9	-10	1	1.2
CN1CCN(Cc2cn(C)nc2-c2ccccc2F)CC1c1ccccc1 (configuration not stated)	-6	1.0	-17	-11	-10	1	-1	3.8	-9	-5.0
CC(=O)N1N=C(C)CC1c1ccc(O)cc1 (configuration not stated)	-3	0.9	-3	-18	4	19	15	6.0	-2	0.0
O=C(CCn1c(=O)sc2ccccc21)NCc1ccc2c(c1)OCO2	-1	0.0	29	-6	-11	.	.	.	0	-6.3
CCOC(=O)c1oc2ccc(Br)cc2c1NC(=O)CN1CCN(C)CC1	-4	-1.9	.	.	4	.	.	.	2	3.2
Cc1sc2ncnc(SCC(=O)N3CCCC(C(F)(F)F)C3)c2c1C (configuration not stated)	.	-0.5	2	17	-3	20	20	3.4	-12	-1.8
Cc1ccc(SCC(=O)Nc2ccccc2C(=O)O)cc1	-1	-6.6	1	16	55	.	.	.	0	1.7
COc1ccc(S(=O)(=O)Nc2cc(C)on2)cc1	1	0.4	-3	1	3	3	5	-0.2	0	-6.0
CN(Cc1ccccc1Cl)C(=O)C1CCC(=O)N(CCc2cccc(F)c2)C1 (configuration not stated)	-2	0.6	0	1	-3	-6	-25	-0.3	7	-3.6
COc1cccc(C(=O)OCC(=O)NC(C)CCc2ccccc2)c1O (configuration not stated)	-1	-0.1	5	7	.	6	9	-3.7	-5	3.3
COP(=O)(OC)c1nc(-c2cccc3ccccc23)oc1NCc1ccccc1	3	-0.1	1	2	4	.	.	.	-8	1.3
CCCc1cc(=O)[nH]c(SCC(=O)Nc2nc(-c3ccccc3)cs2)n1	-6	0.8	-5	-12	99*	-7	-12	-0.8	-4	2.2
Cc1ccc(C2=[N+]([O-])C3(CCCCC/C3=N\NC(N)=O)N(O)C2(C)C)o1 (configuration not stated)	-5	0.1	11	-3	4	.	.	.	-1	-1.0
COc1c(Cl)ccc(Cl)c1C(=O)OCC(=O)O	3	0.2	0	2	-2	5	8	1.5	1	-5.5
O=C(O)c1cccc(N/N=C/c2cccs2)c1	-1	-8.1	-2	-2	.	7	-12	-2.6	-1	2.9
O=C(COC(=O)COc1ccc(Cl)cc1Br)NCCC1=CCCCC1	-2	0.9	.	.	-8	2	-3	-1.3	-5	0.8
N#Cc1c(-c2ccccc2)nc(SCc2cccc(C(F)(F)F)c2)[nH]c1=O	-4	0.5	0	4	87*	-47	-74	-14	3	3.3
Cc1cc(C)nc(NS(=O)(=O)c2ccc(NS(=O)(=O)c3ccc(C#N)cc3)cc2)n1	-1	-0.3	5	-10	-13	2	7	-1.8	3	1.2
Oc1c(C=Nc2ccccc2Cl)[nH]c2ccccc12	-10	0.0	-37	-15	-10	4	5	-3.6	10	1.2
CSc1nc2ccc(NC(=O)CSc3nnc(N)s3)cc2s1	1	0.6	-6	11	-40	-15	-12	0.3	-15	-2.2
COc1ccccc1NC(=O)c1ccc(NC(=O)C2COc3ccccc3O2)cc1 (configuration not stated)	0	-0.8	1	6	-18	-7	-12	0.8	-1	2.4
CCCCC(CC)C(=O)NCc1ccccc1OC (configuration not stated)	2	1.5	-21	7	.	.	.	.	-6	3.3
CC1CN(CCCCOc2ccc(C(C)C)cc2)CC(C)O1 (configuration not stated)	.	0.6	-16	36	.	.	.	.	-13	2.9
CC(C)CC(OC(=O)c1cccs1)C(=O)NCC1CCCO1 (configuration not stated)	-6	-0.1	-3	4	3	.	.	.	1	5.4
CS/C(=N\S(=O)(=O)c1cccs1)Nc1cccc(Cl)c1C	0	-1.3	57	-17	-7	-44*	-10*	-1.3*	9	-1.2

(list continues)
SMILES	Beta cell apopt	A1 inh	Calb FLC	T cruzi inh	ALR H2O2 inh	Ecoli rRNA inh	Ecoli rRNA inh OD600	Ecoli rRNA inh RFP	B2AR ag	LANA-H2A inh
CCOC(=O)c1cccc(NC(=O)c2cc(C)nn2-c2ccccc2)c1	-1	1.5	-7	-7	.	-8	-9	2.9	11	-0.9
CC1=C(C(N)=O)C(c2cccnc2)n2nc(-c3cccc(Cl)c3)nc2N1 (configuration not stated)	3	0.0	1	16	3	.	.	.	-1	2.2
COc1ccc(NC(=O)C2CCCN(c3cc(C)nc4ncnn34)C2)cc1 (configuration not stated)	0	?	2	7	56	-6	10	1.0	-11	-1.2
Clc1ccc(-c2cc(-c3ccccn3)on2)c(Cl)c1	3	-8.1	-15	15	9	0	5	-0.8	-12	7.0
Cc1csc(N/N=C/c2ccc(O)c([N+](=O)[O-])c2)n1	10	-6.4	5	33	42	.	.	.	15	11
O=C(N/N=C/c1c[nH]c2ccccc12)c1sc2ccccc2c1Cl	-5	-1.2	-3	-11	0	.	.	.	-7	-18
Cc1cc(C)cc(NC(=S)Nc2ccc(Cl)c(Cl)c2)c1	-1	0.0	-28	16	-3	-50	-80	-15	12	0.9
O=C(/C=C/c1ccco1)NCc1ccco1	-14	-0.5	1	-10	43	3	10	0.3	7	8.0
COc1ccc(S(=O)(=O)N2CCC3(CC2)OCCN3S(=O)(=O)c2ccc(OC)cc2)cc1	2	-1.6	-4	16	-2	7	14	3.9	4	-6.1
O=C(NCCCN1CCOCC1)c1ccc(CS(=O)(=O)Cc2ccc(Cl)cc2)o1	4	-0.2	-5	5	-8	.	.	.	-7	-11
CSc1nc(C)nc(C2CC2)c1C#N	-3	-0.2	0	-19	3	17	21	4.7	-6	-5.0
N#CCC(=O)N/N=C/c1ccc(SCC(=O)Nc2ccccc2)o1	-9	-0.6	-3	-13	93*	18	16	1.5	-9	0.7
CC1=CCC2C(=O)N(c3cccc(C(=O)N(C)C4CCCCC4)c3)C(=O)C2C1 (configuration not stated)	-3	0.3	1	10	-5	.	.	.	-5	4.2
CCCCNC(=O)Cc1c(O)c2ccccc2[nH]c1=O	0	-0.7	12	-8	14	2	0	-4.5	-1	3.0
Cc1ccc(NC(=O)C2CCN(C(=O)NC3CCCCC3)CC2)cc1	7	-0.6	37	-5	-5	.	.	.	-11	5.4
C/C(=C\c1cc(C(=O)O)c(C)o1)CO	-6	-0.4	-8	-20	-1	.	.	.	0	-3.5
CC(=O)NCc1ccc(S(=O)(=O)N2CCCN(C)CC2)cc1	-6	-0.3	-7	-8	0	8	12	-1.0	-7	4.7
CCOc1ccc(S(=O)(=O)N2CCCC(C(=O)NCc3ccncc3)C2)cc1 (configuration not stated)	-4	0.8	4	2	-2	0	14	1.0	-7	-6.3
CC1(C)CC(=O)C2=C(C1)N(C1CCCCC1)C(=O)C2(O)C(F)(F)F (configuration not stated)	-8	0.2	-3	1	-11	.	.	.	-2	-0.4
CCC(C)N(C)C1CCN(C(=S)Nc2ccc(OC)cc2)CC1 (configuration not stated)	-1	-0.9	-5	-6	.	7	-3	-3.6	1	-0.6
CCOc1ccc(CCNC(=O)CN2C(=O)NC3(CCCC3)C2=O)cc1OCC	-5	0.3	-1	0	-2	1	12	-2.7	-5	2.9
Cc1nc(C2CC(=O)OC23CCCCC3)cs1 (configuration not stated)	-1	-0.3	-6	2	-23	.	.	.	3	-5.5*
CCOC(=O)N1CCN(C(=O)COc2ccc(S(=O)(=O)NC(C)C)cc2)CC1	-1	1.5	-2	-7	.	0	-1	-0.4	1	-0.7
Cc1cccc(C(=O)NCC(=O)N(C)CC(=O)Nc2ccc(N3CCOCC3)cc2)c1	2	0.1	-8	-14	?	7	9	0.9	7	4.1
O=[N+]([O-])c1ccc(Oc2cnc3ccccc3n2)cc1	0	-2.9	11	-5	-3	2	9	-3.3	25	3.7
CCOC(=O)CC(=O)CSc1nc(N)c(C#N)c(-c2ccc(Cl)cc2)c1C#N	-2	-0.8	48	.	-5	-17	-17	8.3	8	-0.9
COc1cccc(CNS(=O)(=O)c2ccc3c(c2)CC(C)N3C(=O)C2CCC2)c1 (configuration not stated)	22	-1.0	3	-44	-3	-7	-35	-7.5	-17	1.4
FC(F)(F)c1cc(-c2ccc(Cl)cc2)nc2ncnn12	2	0.7	5	4	1	.	.	.	-3	0.0
CCOc1cccc(C(=O)N(Cc2cccc(F)c2)C2CCS(=O)(=O)C2)c1 (configuration not stated)	.	.	-1	-1	13	-5	-7	3.4	-5	.
COc1ccc(NC(=O)COC(=O)Cc2ccccc2[N+](=O)[O-])cc1OC	-2	-0.5	-2	-3	-17	-12	-8	3.0	6	0.8

(next part)
SMILES	Beta cell apopt	A1 inh	Calb FLC	T cruzi inh	ALR H2O2 inh	Ecoli rRNA inh	Ecoli rRNA inh OD600	Ecoli rRNA inh RFP	B2AR ag	LANA-H2A inh
CCn1c(CNC(=O)c2cccs2)n[nH]c1=S	3	2.6	-6	-11	-9	7	28	11	-1	-1.2
CC1CCC(C(C)C)C(OC(=O)COC(=O)c2cccn2C)C1 (configuration not stated)	2	0.9	0	-1	-4	.	.	.	-2	0.3
CCN(CC)CCCNC(=O)c1cc(-c2ccccc2)c(N2CCCCC2)s1	20	0.8	17	28	99*	-14	-23	3.3	36	0.8
COc1cc(C(=O)OCC(=O)NCCCc2ccccc2)ccc1OCC(C)C	-3	-0.4	-15	-18	-3	7	6	-0.5	-7	-4.6
CC1(C)C(C=C(Cl)Cl)C1C(=O)N/N=C/c1ccccc1F (configuration not stated)	9	-5.9	-66	3	-9	-27	-66	15	3	-0.4

A portion of the library (hit frequency here may not be typical).
